AmpC nodet inh – blocks E. coli AmpC beta-lactamase in absence of detergent; AID 585; AmpC nitrocefin hydrolysis, absorbance 480 nm, no detergent; potencies from a single point are estimates; P00811; 1.8% of 71,000 active; Potency, µM (doses to about 28.7 µM), for inactives: at the top dose activity change, negative = inhibition; active = falling curve, for most hits resting on a single point; inconclusive = weak or doubtful change; inactive = flat or rising curve; note: % of control where 0% means no effect; about half of the hits show no inhibition at the top dose; a quarter of the inactives give rising signals
Target sequence (P00811 whole entry, looked up): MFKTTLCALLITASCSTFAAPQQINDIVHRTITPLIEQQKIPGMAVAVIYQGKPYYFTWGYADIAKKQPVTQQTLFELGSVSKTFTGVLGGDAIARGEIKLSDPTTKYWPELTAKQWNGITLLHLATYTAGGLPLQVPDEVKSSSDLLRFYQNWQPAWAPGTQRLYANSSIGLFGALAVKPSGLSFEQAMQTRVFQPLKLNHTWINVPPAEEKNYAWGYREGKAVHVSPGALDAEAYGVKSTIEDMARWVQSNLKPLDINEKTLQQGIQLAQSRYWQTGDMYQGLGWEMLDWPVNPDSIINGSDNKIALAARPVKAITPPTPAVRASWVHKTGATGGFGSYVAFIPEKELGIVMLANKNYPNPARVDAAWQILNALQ
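AmpC, 20 mM phosphate pH 7.0; 15 min cpd preinc, RT; start with nitrocefin (800 uM stock); A480 kinetic read, 20 s intervals, 4 min. No-enzyme wells = negative control.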
The depositor's hits bear a star; [ ] = another dose, or the depositor's remark. Potency is the fitted concentration of half-maximal effect. An excerpt. The share of hits here may be higher or lower than overall.

Results for COC(=O)c1sccc1NC(=O)C1C2C=CC(O2)C1C(=O)O (stereo unspecified) ?
AmpC nodet inh: -2.6%

How did CCCCCCNC(=O)Nc1ccccc1 do in these assays?
AmpC nodet inh: -5.4%

How did O=c1c2ccccc2nnn1CSc1nc2cc(Cl)ccc2c(=O)n1Cc1ccco1 do in these assays?
AmpC nodet inh: -18.5%

How did NC(=O)c1cc2ccc(O)cc2oc1=Nc1ccccc1 do in these assays?
AmpC nodet inh: 11.2%

Results for O=C(Nc1ccccc1F)c1ccc(S(=O)(=O)NCC2CCCO2)cc1 (stereo unspecified) ?
AmpC nodet inh: -4.0%

What do the screens show for `Cc1ccnc(NS(=O)(=O)c2ccccc2)n1`?
AmpC nodet inh: 9.3%

How did CCn1cc(Br)c(C(=O)N2CCN(c3ccccc3)CC2)n1 do in these assays?
AmpC nodet inh: 5.7%

How did Cc1ccc2nsnc2c1S(=O)(=O)Nc1cccc2nsnc12 do in these assays?
AmpC nodet inh: -22.8%

How did O=c1nccc(NCc2ccco2)[nH]1 do in these assays?
AmpC nodet inh: -4.7%

What do the screens show for `O=C(c1cc(Cl)ccc1Cl)N1CCOCC1`?
AmpC nodet inh: -4.4%

What do the screens show for `O=C(Nc1cc(C(F)(F)F)ccc1F)C1CCC1`?
AmpC nodet inh: -6.1%

Results for O=C(c1cccc(S(=O)(=O)N2CCCC2)c1)c1nnc(-c2ccncc2)o1 ?
AmpC nodet inh: 27.3%

What do the screens show for `CCOC(=O)Cn1c(CN(Cc2ccccc2)Cc2ccccc2)nc2c1c(=O)n(C)c(=O)n2C`?
AmpC nodet inh: 144.5%

What do the screens show for `O=C1CCCN1Cc1ncnn1-c1ccccc1`?
AmpC nodet inh: -13.3%

What do the screens show for `CCC(=O)N1CCN(c2cc(C)ccc2C)CC1`?
AmpC nodet inh: 19.6%

Grouped by structure: the entries above containing a halogen.
How did O=c1c2ccccc2nnn1CSc1nc2cc(Cl)ccc2c(=O)n1Cc1ccco1 do in these assays?
AmpC nodet inh: -18.5%

Results for O=C(Nc1ccccc1F)c1ccc(S(=O)(=O)NCC2CCCO2)cc1 (stereo unspecified) ?
AmpC nodet inh: -4.0%

How did CCn1cc(Br)c(C(=O)N2CCN(c3ccccc3)CC2)n1 do in these assays?
AmpC nodet inh: 5.7%

What do the screens show for `O=C(c1cc(Cl)ccc1Cl)N1CCOCC1`?
AmpC nodet inh: -4.4%

What do the screens show for `O=C(Nc1cc(C(F)(F)F)ccc1F)C1CCC1`?
AmpC nodet inh: -6.1%

The list continues:
What do the screens show for `COc1ccc(NC(=O)C2CC(=O)N(c3cc(C)ccc3C)C2)cc1` (stereo unspecified)?
AmpC nodet inh: 32.1%

What do the screens show for `CC1(NC[C@@H](O)COc2cccc3[nH]ccc23)CCC(C(C)(C)NC(=O)CBr)CC1` (stereo partly specified)?
AmpC nodet inh: -0.9%

What do the screens show for `Cn1c(-c2ccccc2)cnc1SCc1nc2ccccc2c(=O)[nH]1`?
AmpC nodet inh: -1.2%

Results for Nc1nncn1C(=O)c1ccccc1Cl ?
AmpC nodet inh: -12.4%

How did Cc1noc(C)c1-c1cc(NCc2cccnc2)ncn1 do in these assays?
AmpC nodet inh: 5.5%

Results for O=[N+]([O-])c1ccc(NCCO)c(OCCO)c1 ?
AmpC nodet inh: -0.5%

What do the screens show for `Cc1cccc(OCC(=O)Nc2ccc(N3CCN(S(C)(=O)=O)CC3)cc2)c1`?
AmpC nodet inh: -16.9%

How did CN(CCc1ccc(Cl)c(Cl)c1)CCN1CCCC1 do in these assays?
AmpC nodet inh: 20.0%

What do the screens show for `N#CC[N+]1(Cc2ccccn2)CCCC1`?
AmpC nodet inh: 0.7%[5.75 µM]

Results for CCN(CC)CC(=O)c1c[nH]c2ccccc12 ?
AmpC nodet inh: -11.2%

How did O=C1c2ccccc2C(=O)c2c(Nc3ccc4c5c(cccc35)C(=O)c3ccccc3-4)cccc21 do in these assays?
AmpC nodet inh: -2.6%[5.75 µM]

How did CCCCc1nnc(SCc2ccc(OCC)cc2)n1N do in these assays?
AmpC nodet inh: -3.7%

What do the screens show for `O=C(CSc1nnc2c(n1)[nH]c1ccc(F)cc12)OCc1ccccc1`?
AmpC nodet inh: 10µM*

How did CCCc1nc(SC2CCCC2)c2c(=O)n(C)c(=O)n(C)c2n1 do in these assays?
AmpC nodet inh: 16.4%

Results for COc1ccc(C(=O)NCc2nc3ccccc3[nH]2)cc1OC ?
AmpC nodet inh: -3.5%

How did O=C(Cn1cc2c(n1)CCCC2)N1CCc2ccccc21 do in these assays?
AmpC nodet inh: 1.2%

How did O=C1c2oc3ccccc3c(=O)c2C(c2cccc(O)c2)N1CCCN1CCOCC1 (stereo unspecified) do in these assays?
AmpC nodet inh: 16.4%

Results for Cn1c(=O)c2c(nc(Sc3nc4ccccc4n3CC(=O)N3CCCCC3)n2C)n(C)c1=O ?
AmpC nodet inh: 21.8%

How did CCCCc1ccc(NC(=O)OC)cc1 do in these assays?
AmpC nodet inh: 1.6%

How did CC1=CC(C)(C)N2C(=O)C3(N=C(N)NC(Nc4ccccc4)=N3)c3cc(C)cc1c32 (stereo unspecified) do in these assays?
AmpC nodet inh: -11.6%

What do the screens show for `CCN(CC)S(=O)(=O)c1ccc(NC(=O)CSc2nnc(-c3ccc(F)cc3)o2)cc1`?
AmpC nodet inh: -2.5%

Results for COCC(=O)N(Cc1cc2cc(OC)ccc2[nH]c1=O)c1ccccc1OC ?
AmpC nodet inh: 17.6%

How did NC(=O)c1sc2nc3c(c(-c4ccco4)c2c1N)CCC3 do in these assays?
AmpC nodet inh: 13.3%

What do the screens show for `C=CCn1c(=O)c(C(=O)Nc2ccccc2C(=O)OCC)c(O)c2ccccc21`?
AmpC nodet inh: 53.6%

How did COc1ccc(-c2nnc(SCC(=O)N(Cc3ccccc3)C(C)(C)C)o2)cc1OC do in these assays?
AmpC nodet inh: 142.5%

How did CN(C)C(=O)CSc1nnc(CCN)o1 do in these assays?
AmpC nodet inh: -4.4%

Results for COc1cc(CNc2ccc(C)c(C)c2)cc(OC)c1OC ?
AmpC nodet inh: 11.0%

Results for Cc1c(NC(=O)Nc2ccccc2Cl)sc(=S)n1C ?
AmpC nodet inh: inconclusive

Results for O=C(Nc1ccccc1)N1CCCC2(CCN(C(=O)c3cnccn3)CC2)C1 ?
AmpC nodet inh: -5.2%

Results for O=C1c2ccccc2C(=O)N1CCc1nc2ccccc2c(=O)n1-c1ccccn1 ?
AmpC nodet inh: 21.5%

In the list so far, these contain a Cl atom:
How did O=c1c2ccccc2nnn1CSc1nc2cc(Cl)ccc2c(=O)n1Cc1ccco1 do in these assays?
AmpC nodet inh: -18.5%

What do the screens show for `O=C(c1cc(Cl)ccc1Cl)N1CCOCC1`?
AmpC nodet inh: -4.4%

Results for Nc1nncn1C(=O)c1ccccc1Cl ?
AmpC nodet inh: -12.4%

How did CN(CCc1ccc(Cl)c(Cl)c1)CCN1CCCC1 do in these assays?
AmpC nodet inh: 20.0%

Results for Cc1c(NC(=O)Nc2ccccc2Cl)sc(=S)n1C ?
AmpC nodet inh: inconclusive

(more compounds)
What do the screens show for `O=C(O)c1ccc(CS(=O)(=O)c2cccc(C(F)(F)F)c2)o1`?
AmpC nodet inh: 1.2%

How did O=c1c2ccccc2nc2ccc(NCc3ccco3)nn12 do in these assays?
AmpC nodet inh: -5.1%

What do the screens show for `O=C(c1ccco1)N1CCN(C(c2ccccc2Cl)c2nnnn2CC2CCCO2)CC1` (stereo unspecified)?
AmpC nodet inh: 49.2%

What do the screens show for `CN1CCN(c2ncc3nc(-c4cccc(C#N)c4)c(=O)n(Cc4ccc(F)cc4)c3n2)CC1`?
AmpC nodet inh: 142.9%

Results for OCCSCc1ccccc1 ?
AmpC nodet inh: 7.8%[5.75 µM]

How did CCOC(=O)C1=C(C)N=C2SCCC(=O)N2C1c1sccc1C (stereo unspecified) do in these assays?
AmpC nodet inh: 36.8%

Results for CCN(CC)c1ccccc1 ?
AmpC nodet inh: 0.3%

Results for CCN1CCN(CC(=O)Nc2ccc(Cl)c(Cl)c2)C(=O)C1=O ?
AmpC nodet inh: 16.5%

What do the screens show for `O=C(NCc1cccs1)O[C@H]1C[C@H]2CC[C@@H]1C2`?
AmpC nodet inh: -0.8%[5.75 µM]

How did NC(=O)NC1CCCc2c1[nH]c1ccc(Cl)cc21 (stereo unspecified) do in these assays?
AmpC nodet inh: 10.3%

Results for OCC(CO)(CO)n1cnnn1 ?
AmpC nodet inh: 3.5%

Results for Cc1ccc(-c2nnc(CSc3nnc(COc4ccccc4)n3-c3ccc(C)cc3)o2)cc1 ?
AmpC nodet inh: 65.6%

What do the screens show for `NC[C@@H]1O[C@@H](O[C@H]2[C@@H](O)[C@H](O[C@@H]3[C@H](O)[C@H](N)C[C@H](N)[C@H]3O[C@@H]3O[C@@H](CO)[C@H](O)[C@H](O)[C@@H]3N)O[C@H]2CO)[C@H](N)[C@H](O)[C@@H]1O`?
AmpC nodet inh: 2.2%

What do the screens show for `CCN(CC)CCCN=C(C)c1c(O)n(-c2ccc(C)cc2)c(=O)[nH]c1=O`?
AmpC nodet inh: -6.0%

Results for CC(C)CCn1nc(C(=O)OC(C)C(=O)NC(N)=O)c2ccccc2c1=O (stereo unspecified) ?
AmpC nodet inh: 25.6%

What do the screens show for `Cc1ccc(-c2csc3n[nH]c(=S)n23)cc1`?
AmpC nodet inh: 0.6%

What do the screens show for `CN1CC(=O)N(CC(=O)Nc2ccc(N(C)C)cc2)c2ccccc2C1=O`?
AmpC nodet inh: 4.1%

What do the screens show for `O=C(CCCCn1c(=O)c2ccccc2n(CC(=O)NC2CCCC2)c1=O)NCc1ccco1`?
AmpC nodet inh: 18.7%

What do the screens show for `CCOC(=O)C1CCCN(C(=O)c2cc3c(-c4cccc(OC)c4)nn(C)c3s2)C1` (stereo unspecified)?
AmpC nodet inh: 113.5%

What do the screens show for `Brc1cccc(-c2nc(-c3ccncc3)no2)c1`?
AmpC nodet inh: 1.4%

Results for COc1ccc(S(=O)(=O)N(CC(=O)N2CCN(c3ccccc3OC)CC2)c2ccccc2)cc1 ?
AmpC nodet inh: 140.5%

Results for CCS(=O)(=O)NCCc1csc(-c2cccnc2)n1 ?
AmpC nodet inh: 8.9%

How did CCOC(=O)CSc1nc2ccccc2c(=O)n1CC1CCCO1 (stereo unspecified) do in these assays?
AmpC nodet inh: 30.8%

How did CCOC(=O)C1CCN(Cc2ccc(O)c(OC)c2)CC1 do in these assays?
AmpC nodet inh: -5.7%

Results for CCN(CC)S(=O)(=O)c1ccc(F)cc1 ?
AmpC nodet inh: -5.1%

Results for CCOc1cccc(NC(=O)C(Cc2cccs2)c2nn[nH]n2)c1 (stereo unspecified) ?
AmpC nodet inh: -8.2%

What do the screens show for `COc1[nH]c(/N=C/c2ccccc2)c(C#N)c1C#N`?
AmpC nodet inh: -17.2%

What do the screens show for `COc1ccc(CNC(=O)C2CCCN(S(=O)(=O)c3c(C)nn(C)c3C)C2)cc1` (stereo unspecified)?
AmpC nodet inh: 45.1%

How did CC(=O)NC(Cc1cnc[nH]1)C(=O)O (stereo unspecified) do in these assays?
AmpC nodet inh: 3.4%

How did O=C(O)CN(CCOCCOCCN(CC(=O)O)CC(=O)O)CC(=O)O do in these assays?
AmpC nodet inh: 5.7%

What do the screens show for `COc1ccccc1N1CCN(C(=O)CCNS(=O)(=O)c2ccc(Br)s2)CC1`?
AmpC nodet inh: 86.9%

How did COC(=O)C(C)Oc1ccc(=O)[nH]n1 (stereo unspecified) do in these assays?
AmpC nodet inh: -2.7%

What do the screens show for `C/C(=C\c1ccco1)C1C(C#N)=C(N)OC2=C1C(=O)CC(C)(C)C2` (stereo unspecified)?
AmpC nodet inh: -21.0%

Results for CC(C)C[C@@H](CC(=O)N[C@@H](CCC(=O)O)CC(=O)O)NC(=O)[C@@H]1CNCC[C@H]1NC(=O)C[C@H](CCCN)NC(=O)C[C@H](CO)NC(=O)[C@@H]1CNCC[C@H]1N ?
AmpC nodet inh: 10.8%

How did CCCOc1ccc(C2(C(=O)O)CCCC2)cc1 do in these assays?
AmpC nodet inh: 2.1%

How did O=C(CCN1C(=O)C2C3C=CC(C3)C2C1=O)N1CCN(c2ccc(F)cc2)CC1 (stereo unspecified) do in these assays?
AmpC nodet inh: 61.2%

Results for c1cncc(-c2nc3ccccn3c2Nc2ccc3c(c2)OCCO3)c1 ?
AmpC nodet inh: 7.7%

Results for COc1ccc(N2CCN(CCCNS(=O)(=O)c3ccc4c(c3)oc(=O)n4C)CC2)cc1 ?
AmpC nodet inh: 36.0%

Results for CCOc1ccc(C(N)=O)cc1OC ?
AmpC nodet inh: -8.4%

How did Nc1nc(CN2CCN(c3ccccn3)CC2)nc(Nc2ccc(F)cc2)n1 do in these assays?
AmpC nodet inh: 18.1%

Results for CC1CCCCN1C(=O)CSc1ccc(-c2ccc(F)cc2)nn1 (stereo unspecified) ?
AmpC nodet inh: 17.7%

Results for Cc1ccc(CC2SC(=O)NC2=O)cc1Cl (stereo unspecified) ?
AmpC nodet inh: -12.6%

Results for N#CCSc1nc2scc(-c3cccs3)c2c(=O)n1CCc1ccccc1 ?
AmpC nodet inh: 7.94µM*

What do the screens show for `CCOc1ccc(-c2nnc3sc(COc4ccc(Cl)cc4)nn23)cc1`?
AmpC nodet inh: inconclusive

What do the screens show for `CCOCCCNC(=O)C(NC(=O)c1cnccn1)c1ccc(OC)cc1` (stereo unspecified)?
AmpC nodet inh: 3.4%

What do the screens show for `O=C1N[C@@]2(CN3CCC2CC3)C(=O)N1CN(Cc1ccccc1)c1ccccc1`?
AmpC nodet inh: 2.4%[5.75 µM]

What do the screens show for `O=C(CCc1nc(-c2ccccc2F)no1)NC1CCN(Cc2ccccc2)CC1`?
AmpC nodet inh: 13.3%

How did CC(=O)Nc1ccc(Cl)cc1C(=O)O do in these assays?
AmpC nodet inh: -6.3%

How did O=C(O)[C@@H]1CSC2(CCSC2)N1 (stereo partly specified) do in these assays?
AmpC nodet inh: -4.3%

From PubChem
